# High-throughput results from PubChem.
# YB-1 expression: YB-1 expression inhibition; U2OS, qRT-PCR YB-1 vs CDIP delta delta Cp, 16 h; hits give high values; zero = DMSO, each unit about twofold; delta delta Cp (YB-1 minus CDIP) (concentration not given with the values); hit rate 0.37% among 30,000; AID 434959;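 active means delta delta Cp rounded down to an integer at or above 3, about 3 SD of DMSO wells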;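 further: higher means less YB-1 transcript or more CDIP transcript relative to DMSO; stock transfer was 100 nL into about 100 µL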
# * marks the source's active call; other numbers are inactive results.
no.	Structure	YB-1 expression
1	C=CCNC(=O)[C@H]1[C@@H]2C(=O)O[C@@H](c3ccccc3)[C@@H](c3ccccc3)N2[C@@H](c2ccccc2OCCO)[C@]12C(=O)Nc1ccc(C#CC3=CCCCC3)cc12	-0.69
2	COc1cccc(CN(C)C[C@@H]2OCc3cnnn3CCCC(=O)N([C@H](C)CO)C[C@H]2C)c1	-0.19
3	O=C(NO)c1ccc(C(=O)N/N=C/c2cc(Br)cs2)cc1	0.37
4	COC(=O)CCCCCCC(=O)N/N=C/c1ccc(I)cc1	0.25
5	C[C@@H]1CN([C@H](C)CO)C(=O)CCCn2cc(nn2)CO[C@@H]1CN(C)C(=O)C1CC1	-0.076
6	Cc1ccccc1/C=N/NC(=O)CCCCCCC(=O)O	-0.58
7	C[C@@H]1CN([C@H](C)CO)C(=O)CCCn2cc(nn2)CO[C@H]1CN(C)Cc1ccc(-c2ccccc2)cc1	-0.38
8	C[C@@H]1CN([C@H](C)CO)C(=O)CCCn2cc(nn2)CO[C@@H]1CN(C)Cc1ccc(C(=O)O)cc1	0.52
9	C[C@@H]1CN([C@@H](C)CO)C(=O)CCCn2nncc2CO[C@H]1CN(C)S(=O)(=O)c1cccs1	-0.57
10	C[C@H](CO)N1C[C@H](C)[C@H](CN(C)C(=O)Nc2cccc(Oc3ccccn3)c2)OCc2cn(nn2)CCCC1=O	0.12
11	Cc1noc(C)c1S(=O)(=O)N(C)C[C@@H]1OCc2cn(nn2)CCCC(=O)N([C@@H](C)CO)C[C@H]1C	-0.1
12	CC(C)OC(=O)N(C)C[C@@H]1OCc2cn(nn2)CCCC(=O)N([C@@H](C)CO)C[C@@H]1C	0.26
13	COCCOC(=O)N1C(=O)[C@@]2(c3cc(C#CC4=CCCCC4)ccc31)[C@H](C(N)=O)[C@H]1C(=O)O[C@H](c3ccccc3)[C@H](c3ccccc3)N1[C@@H]2c1ccccc1OCCO	-0.033
14	COc1ccccc1NC(=O)N(C)C[C@H]1OCc2cn(nn2)CCCC(=O)N([C@@H](C)CO)C[C@H]1C	0.1
15	O=C(NO)c1ccc(C(=O)N/N=C/c2ccc(Br)o2)cc1	-0.33
16	O=S(=O)(N[C@@H]1CCCN(Cc2cccc(OCCO)c2)C1)c1cccc(F)c1	0.24
17	C[C@@H]1CN([C@H](C)CO)C(=O)CCCn2nncc2CO[C@@H]1CN(C)C(=O)c1ccccc1	0.14
18	C[C@H](CO)N1C[C@H](C)[C@@H](CN(C)S(=O)(=O)c2ccc(-c3ccccc3)cc2)OCc2cnnn2CCCC1=O	-0.26
19	C=CC[C@@]1(C(=O)NCCCOC)N=C(c2ccc(OCCCO)cc2)O[C@@H]1c1ccccc1	-0.32
20	Cc1ccc(OC(=O)N(C)C[C@H]2OCc3cn(nn3)CCCC(=O)N([C@@H](C)CO)C[C@H]2C)cc1	-0.03
21	C[C@@H]1CN([C@H](C)CO)C(=O)CCCn2nncc2CO[C@H]1CN(C)Cc1ccc(Cl)c(Cl)c1	0.15
22	C[C@@H]1CN([C@H](C)CO)C(=O)CCCn2cc(nn2)CO[C@@H]1CN(C)C(=O)c1ccc(N2CCN(C)CC2)cc1	-0.093
23	C[C@H]1CN([C@@H](C)CO)C(=O)CCCn2nncc2CO[C@@H]1CN(C)C(=O)Nc1cccc(C(F)(F)F)c1	-0.41
24	O=C(NO)c1cccc(C(=O)N/N=C/c2ccc([N+](=O)[O-])c(O)c2)c1	-0.15
25	O=C(N/N=C/c1ccc(CO)o1)c1ccccn1	-0.11
26	COC(=O)CCCCCCC(=O)Nc1ccc(C2OC(CSc3nc4ccccc4s3)CC(c3ccccc3)O2)cc1 (stereo not given)	-0.045
27	C[C@@H]1CN([C@@H](C)CO)C(=O)CCCn2nncc2CO[C@@H]1CN(C)Cc1cccc(O)c1	-0.21
28	C[C@H](CO)N1C[C@H](C)[C@H](CN(C)S(=O)(=O)c2cccs2)Oc2ncc(C#Cc3cccc(F)c3)cc2C1=O	-0.43
29	C[C@H](CO)N1C[C@H](C)[C@@H](CN(C)Cc2ccc3c(c2)OCCN3C)OCc2cn(nn2)CCCC1=O	-0.2
30	COc1ccc(-c2cnc3c(c2)C(=O)N([C@H](C)CO)C[C@H](C)[C@H](CN(C)C)O3)cc1	0.062
31	COc1ccc(/C=N/NC(=O)c2ccccn2)c(OC)c1	0.092
32	O=S(=O)(N[C@@H]1CCCN(Cc2cccc(OCCO)c2)C1)c1ccc2ccccc2c1	-0.53
33	C[C@@H]1CN([C@@H](C)CO)C(=O)CCCn2nncc2CO[C@@H]1CN(C)C(=O)Nc1ccc(-c2cccs2)cc1	0.28
34	C[C@@H]1CN([C@H](C)CO)C(=O)CCCn2nncc2CO[C@@H]1CN(C)Cc1ccc2cccnc2c1	-0.38
35	COC(=O)[C@H]1N=C(c2ccc(OCCCO)cc2)O[C@H]1c1ccccc1N=[N+]=[N-]	0.043
36	COC(=O)CCCCCCC(=O)N/N=C/c1ccc(O)c2ccccc12	-0.14
37	Cc1ccc(CN(C)C[C@H]2OCc3cnnn3CCCC(=O)N([C@@H](C)CO)C[C@@H]2C)cc1	-0.35
38	CC(C)=CCC[C@H](C)C/C=N/NC(=O)c1cccc(C(=O)NO)c1	-0.31
39	O=C(CCCCC(=O)NN=C1CCCCCC1)NO	0.021
40	O=C(N/N=C/c1cccnc1Br)c1ccccc1O	0.12

# Part of the list above, with the structure last:
entry | YB-1 expression | molecule
20 | -0.03 | Cc1ccc(OC(=O)N(C)C[C@H]2OCc3cn(nn3)CCCC(=O)N([C@@H](C)CO)C[C@H]2C)cc1
21 | 0.15 | C[C@@H]1CN([C@H](C)CO)C(=O)CCCn2nncc2CO[C@H]1CN(C)Cc1ccc(Cl)c(Cl)c1
22 | -0.093 | C[C@@H]1CN([C@H](C)CO)C(=O)CCCn2cc(nn2)CO[C@@H]1CN(C)C(=O)c1ccc(N2CCN(C)CC2)cc1
23 | -0.41 | C[C@H]1CN([C@@H](C)CO)C(=O)CCCn2nncc2CO[C@@H]1CN(C)C(=O)Nc1cccc(C(F)(F)F)c1
24 | -0.15 | O=C(NO)c1cccc(C(=O)N/N=C/c2ccc([N+](=O)[O-])c(O)c2)c1
25 | -0.11 | O=C(N/N=C/c1ccc(CO)o1)c1ccccn1
26 | -0.045 | COC(=O)CCCCCCC(=O)Nc1ccc(C2OC(CSc3nc4ccccc4s3)CC(c3ccccc3)O2)cc1 (stereo not given)
27 | -0.21 | C[C@@H]1CN([C@@H](C)CO)C(=O)CCCn2nncc2CO[C@@H]1CN(C)Cc1cccc(O)c1
28 | -0.43 | C[C@H](CO)N1C[C@H](C)[C@H](CN(C)S(=O)(=O)c2cccs2)Oc2ncc(C#Cc3cccc(F)c3)cc2C1=O
29 | -0.2 | C[C@H](CO)N1C[C@H](C)[C@@H](CN(C)Cc2ccc3c(c2)OCCN3C)OCc2cn(nn2)CCCC1=O
30 | 0.062 | COc1ccc(-c2cnc3c(c2)C(=O)N([C@H](C)CO)C[C@H](C)[C@H](CN(C)C)O3)cc1
31 | 0.092 | COc1ccc(/C=N/NC(=O)c2ccccn2)c(OC)c1
32 | -0.53 | O=S(=O)(N[C@@H]1CCCN(Cc2cccc(OCCO)c2)C1)c1ccc2ccccc2c1
33 | 0.28 | C[C@@H]1CN([C@@H](C)CO)C(=O)CCCn2nncc2CO[C@@H]1CN(C)C(=O)Nc1ccc(-c2cccs2)cc1
34 | -0.38 | C[C@@H]1CN([C@H](C)CO)C(=O)CCCn2nncc2CO[C@@H]1CN(C)Cc1ccc2cccnc2c1
35 | 0.043 | COC(=O)[C@H]1N=C(c2ccc(OCCCO)cc2)O[C@H]1c1ccccc1N=[N+]=[N-]
36 | -0.14 | COC(=O)CCCCCCC(=O)N/N=C/c1ccc(O)c2ccccc12
37 | -0.35 | Cc1ccc(CN(C)C[C@H]2OCc3cnnn3CCCC(=O)N([C@@H](C)CO)C[C@@H]2C)cc1
38 | -0.31 | CC(C)=CCC[C@H](C)C/C=N/NC(=O)c1cccc(C(=O)NO)c1

# (next part)
no.	Structure	YB-1 expression
41	C[C@@H](O)[C@@H](O)[C@@H](O)C/C=N/NC(=O)c1cccc(C(=O)NO)c1	-0.27
42	C[C@@H]1CN([C@@H](C)CO)C(=O)CCCn2nncc2CO[C@H]1CN(C)S(=O)(=O)c1ccc(Cl)cc1	0.36
43	COc1ccc(C#Cc2ccc3c(c2)[C@]2(C(=O)N3)[C@H](c3ccc(O)cc3)N3[C@H](c4ccccc4)[C@H](c4ccccc4)OC(=O)[C@H]3[C@@H]2C(=O)N2CCCCCCC2)cc1	0.46
44	C[C@H]1CN([C@@H](C)CO)C(=O)CCCn2nncc2CO[C@@H]1CN(C)C(=O)C1CC1	0.49
45	CCCC(O)C#Cc1cnc2c(c1)C(=O)N([C@H](C)CO)C[C@H](C)[C@H](CN(C)Cc1cccc(C(F)(F)F)c1)O2 (stereo not given in full)	0.14
46	O=NC(=O)c1cccc(C(=O)NNC=C2C=CN(O)C=C2)c1	0.075
47	C[C@H](CO)N1C[C@H](C)[C@H](CN(C)S(=O)(=O)c2ccc(C#N)cc2)Oc2ncc(C#Cc3ccc(F)cc3)cc2C1=O	-0.34
48	COc1cc(/C=N/NC(=O)c2cccc(C(=O)NO)c2)c([N+](=O)[O-])cc1OC	-0.075
49	C[C@H]1CN([C@@H](C)CO)C(=O)CCCn2cc(nn2)CO[C@H]1CN(C)Cc1ccc(O)cc1	0.52
50	C[C@H]1CN([C@@H](C)CO)C(=O)CCCn2nncc2CO[C@@H]1CN(C)Cc1ccc(-c2ccccc2)cc1	-0.73
51	CN(C)C(=O)[C@]1(CCS(=O)(=O)c2ccccc2)N=C(c2ccc(OCCCO)cc2)O[C@@H]1c1ccccc1	0.098
52	CC(C)(C)OC(=O)NC/C=N/NC(=O)c1ccccc1O	-0.12
53	Cc1ccc(CN(C)C[C@H]2OCc3cn(nn3)CCCC(=O)N([C@@H](C)CO)C[C@H]2C)cc1	-0.013
54	O=C(N/N=C/c1ccc(-c2ccccc2)cc1)c1ccccn1	-0.37
55	NC(=O)[C@H]1[C@@H]2C(=O)O[C@@H](c3ccccc3)[C@@H](c3ccccc3)N2[C@@H](c2ccc(O)cc2)[C@]12C(=O)Nc1ccccc12	0.15
56	OC(CSc1nc(-c2ccccc2)c(-c2ccccc2)o1)CC(O)c1ccccc1 (stereo not given)	-0.033
57	COc1cccc(-c2cnc3c(c2)C(=O)N([C@H](C)CO)C[C@H](C)[C@H](CN(C)Cc2ccncc2)O3)c1	-0.054
58	COc1ccccc1CN1C(=O)c2ccccc2[C@](Cc2ccccc2I)(C(=O)NCC(C)C)[C@@H]1c1ccc(CO)cc1	0.055
59	O=C1c2ccccc2C(=O)N1[C@H]1CCN(Cc2ccc(OCCO)cc2)C1	-0.3
60	C[C@H]1CN([C@@H](C)CO)C(=O)CCCn2nncc2CO[C@H]1CN(C)C(=O)c1ccc(N2CCN(C)CC2)cc1	0.53

# Gathered by group: the compounds so far containing an aryl thioether with sulfur outside any ring
no.	Structure	YB-1 expression
26	COC(=O)CCCCCCC(=O)Nc1ccc(C2OC(CSc3nc4ccccc4s3)CC(c3ccccc3)O2)cc1 (stereo not given)	-0.045
56	OC(CSc1nc(-c2ccccc2)c(-c2ccccc2)o1)CC(O)c1ccccc1 (stereo not given)	-0.033

# Other entries
no.	Structure	YB-1 expression
61	C[C@H](CO)N1C[C@H](C)[C@H](CN(C)Cc2ccncc2)Oc2ncc(-c3cccc(C(F)(F)F)c3)cc2C1=O	0.062
62	O=C(CCCCC(=O)N/N=C/c1ccc(CO)o1)NO	0.25
63	COc1ccc(NC(=O)N(C)C[C@@H]2OCc3cnnn3CCCC(=O)N([C@H](C)CO)C[C@@H]2C)c(OC)c1	-0.8
64	C[C@H](CO)N1C[C@H](C)[C@H](CN(C)C)Oc2ncc(-c3ccccc3)cc2C1=O	-0.053
65	COc1ccc(C#Cc2cnc3c(c2)C(=O)N([C@H](C)CO)C[C@H](C)[C@H](CN(C)S(=O)(=O)c2ccccc2)O3)cc1OC	0.078
66	C[C@@H]1CN([C@H](C)CO)C(=O)c2cc(NC(=O)CCCCCC(=O)Nc3ccccc3N)ccc2O[C@H]1CN(C)C	0.14
67	NC(=O)[C@H]1[C@@H]2C(=O)O[C@@H](c3ccccc3)[C@@H](c3ccccc3)N2[C@@H](c2ccccc2OCCO)[C@]12C(=O)Nc1ccc(C#CC3(O)CCCCCC3)cc12	-0.92
68	COc1cc(Cl)c(/C=N\NC(=O)CCCCC(=O)NO)c(Cl)c1OC	-0.5
69	C[C@@H]1CN([C@@H](C)CO)C(=O)CCCn2nncc2CO[C@H]1CN(C)C(=O)Nc1ccccc1C(F)(F)F	0.26
70	[N-]=[N+]=NCc1ccccc1C[C@]1(C(=O)N2CCOCC2)COC(c2ccc(OCCCO)cc2)=N1	0.1
71	COc1ccccc1NC(=O)N(C)C[C@H]1OCc2cn(nn2)CCCC(=O)N([C@H](C)CO)C[C@@H]1C	-0.3
72	Cc1ccccc1S(=O)(=O)N(C)C[C@@H]1OCc2cn(nn2)CCCC(=O)N([C@@H](C)CO)C[C@@H]1C	-0.55
73	O=C(C1=C[C@@H](c2ccc3c(c2)Cc2ccccc2-3)C[C@@H](OCc2ccc(CO)cc2)O1)N1CCCCC1	-0.3
74	O=C1c2ccccc2C(=O)N1CC1CCN(Cc2cccc(OCCO)c2)CC1	0.11
75	O=C(N/N=C/c1cccc(O)c1)c1ccccn1	-0.4
76	C[C@H](CO)N1C[C@H](C)[C@H](CN(C)CC2CC2)OCc2cnnn2CCCC1=O	0.012
77	C[C@H](CO)N1C[C@H](C)[C@@H](CN(C)CC2CCCCC2)OCc2cn(nn2)CCCC1=O	0.27
78	CNC[C@@H]1OCc2cn(nn2)CCCC(=O)N([C@H](C)CO)C[C@@H]1C	0.14
79	C[C@H](CO)N1C[C@H](C)[C@@H](CN(C)C)OCc2cnnn2CCCC1=O	0.15
80	CC(C)NC(=O)N(C)C[C@@H]1OCc2cn(nn2)CCCC(=O)N([C@H](C)CO)C[C@H]1C	-0.095

# A portion of the library; count on the stated rates, not on these rows.
